# High-throughput results (PubChem)
# KCNQ2 enhance = KCNQ2 (rat) channel potentiation | O88943 | CHO-K1 KCNQ2, FluxOR thallium flux fluorescence; stronger effect = higher value | B-score at 10 µM | hit rate 0.54% among 310,000;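 active = fluorescence ratio B-score at least 3 SD of library B-scores, with initial fluorescence B-score within 3 SD, cut at about 5.3 in these data; same plate scores as AID 2156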;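 also: B-score of peak minus minimum over baseline fluorescence ratio after K+ and Tl+ stimulus; positive B-score means potentiation of KCNQ2 with more thallium influx and brighter signal; only the inactives scoring about 0 or higher are listed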
# Target sequence (O88943 whole entry, looked up): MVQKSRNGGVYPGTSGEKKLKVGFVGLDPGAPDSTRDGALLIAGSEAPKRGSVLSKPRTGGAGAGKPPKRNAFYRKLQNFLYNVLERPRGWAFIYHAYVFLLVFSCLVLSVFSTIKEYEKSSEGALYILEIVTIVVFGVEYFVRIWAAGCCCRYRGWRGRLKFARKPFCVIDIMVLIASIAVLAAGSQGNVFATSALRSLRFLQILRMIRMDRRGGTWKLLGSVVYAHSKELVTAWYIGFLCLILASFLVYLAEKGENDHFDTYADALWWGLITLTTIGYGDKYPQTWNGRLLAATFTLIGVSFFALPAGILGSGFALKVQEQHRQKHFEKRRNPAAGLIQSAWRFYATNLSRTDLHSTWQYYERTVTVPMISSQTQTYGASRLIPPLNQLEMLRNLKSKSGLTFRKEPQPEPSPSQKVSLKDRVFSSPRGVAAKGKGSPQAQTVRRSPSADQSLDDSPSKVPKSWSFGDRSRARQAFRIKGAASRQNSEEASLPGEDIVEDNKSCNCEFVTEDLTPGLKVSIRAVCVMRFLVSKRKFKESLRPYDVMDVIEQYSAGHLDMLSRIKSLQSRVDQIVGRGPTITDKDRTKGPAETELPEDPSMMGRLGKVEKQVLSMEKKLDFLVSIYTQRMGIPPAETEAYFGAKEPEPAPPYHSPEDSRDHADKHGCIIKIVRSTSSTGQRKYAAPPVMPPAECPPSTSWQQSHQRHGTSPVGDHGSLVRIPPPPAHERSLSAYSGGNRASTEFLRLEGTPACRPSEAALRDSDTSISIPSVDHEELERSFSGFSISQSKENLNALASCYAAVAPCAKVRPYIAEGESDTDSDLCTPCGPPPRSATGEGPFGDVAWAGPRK
# KCNQ2 enhance baseline = further read-out of KCNQ2 enhance, marked with its call; B-score; compound at 10 µM; measured here: initial fluorescence intensity artifact check;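 brightness before thallium and not channel activity; 0 = typical well and far values either way flag optical interference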
# * = called active by the depositor. This is a subset, so the mix of outcomes need not match the whole.
No.	SMILES	KCNQ2 enhance	KCNQ2 enhance baseline
1	O=C(N/N=C/c1ccc2c(c1)OCO2)c1sc2cccc(Cl)c2c1Cl	0.98	0
2	CSc1ncc(Cl)c(C(=O)Nc2ccc(S(=O)(=O)N3CCOCC3)cc2)n1	0.75	-0.71
3	CCC(=O)c1ccc(OC(=O)Cc2ccc(OC)cc2)cc1	0.59	-2.8
4	C/C(=N\NC(=O)C12CCC(C)(C(=O)O1)C2(C)C)c1ccccc1O (centres undefined)	0.13	-1.5
5	CCOC(=O)C(C(=O)OCC)C1N=C(N)N=C2Oc3ccccc3N21 (centres undefined)	0.3	1.3
6	COc1ccc(NC(=S)N(CCCN2CCOCC2)Cc2cn(C)c3ccccc23)cc1	0.01	1.4
7	CC(=O)Nc1ccc(S(=O)(=O)NCCSCc2ccccc2Cl)cc1	1.5	-0.67
8	O=[N+]([O-])c1cc([N+](=O)[O-])c(Oc2ccc(Cl)c3cccnc23)cc1NN1CCCCC1	0.24	-0.79
9	CCOC(=O)COc1cccc2c(=O)n(CC(=O)N3CCN(C(=O)OCC)CC3)ccc12	0.99	0.03
10	O=c1c(C/C=C/c2ccccc2)c(O)nc2n1CCCS2	0.23	0.24
11	COc1ccc(S(=O)(=O)N2CCCCCC2)cc1N(C)S(=O)(=O)c1ccccc1	0.21	-2.6
12	Cc1cc(=O)oc2c1ccc1ccccc12	0.29	-0.59
13	Cc1sc2ncnc(NCc3cccnc3)c2c1C	1.9	-0.58
14	CCOC(=O)N1CCN(C(=O)COc2ccc(Cl)c(C)c2)CC1	0.62	1.1
15	Cc1nc2ccccc2c(=O)n1-c1ccc(NS(=O)(=O)c2ccccc2)cc1	1.4	-0.66
16	COC(=O)c1ccc(/C=N/NC(=O)c2ccccc2Cl)cc1	0.92	-0.16
17	CCS(=O)(=O)C(=C1Nc2ccccc2N1)S(=O)(=O)CC	1.3	-0.96
18	Cn1c(=O)c2c(SCc3ccccn3)nc(CC(C)(C)C)nc2n(C)c1=O	0.06	-0.24
19	CC(C)OC(=O)c1cccc(C(=O)OCc2ccco2)n1	0.5	0.4
20	Cc1cc(NN)nc(NS(=O)(=O)c2ccccc2Cl)n1	0.64	-0.48
21	COc1ccc(/C=C2\SC(=N)N(c3nccs3)C2=O)cc1OC	4.8	0.29
22	COc1cccc2c(=O)n(CC(=O)N3CCCCC3)ccc12	0.91	0.97
23	Cc1ccccc1CSCC(=O)c1c(N)n(CC(C)C)c(=O)n(C)c1=O	0.45	-2
24	Cc1ccc(C(=O)OCC(=O)N2C(C)CCCC2C)cc1S(=O)(=O)N1CCOCC1 (centres undefined)	1.7	-1.5
25	C/C(CC(=O)Nc1ccc2c(c1)OCCO2)=N\NC(=O)C(=O)Nc1ccccc1C	0.64	-0.49
26	O=C(COc1cccnc1[N+](=O)[O-])Nc1ccccc1Sc1ccccc1	0.51	0.19
27	COc1ccc(-n2c3c(cc(C(=O)NCc4ccco4)c2=O)C(=O)CC(C)(C)C3)cc1	0.09	-1.3
28	N#C/C(=C\C=C\c1ccccc1)C(=O)NCc1cccnc1	1.2	-0.96
29	COCCNC(=O)c1ccc(C)c(NC(=O)C2=C(C)OCCS2)c1	0.27	-1.2
30	Cc1ccccc1C(=O)NNC(=O)CCc1ccccc1	0.02	1.8
31	Cn1c(=O)c2c(O)c(C=NCc3ccccc3)c(=O)n(C)c2n(C)c1=O	1.2	0.2
32	CC(=O)Nc1ccc(NC(=O)CSc2nnc(CC(C)O)n2-c2ccccc2)cc1 (centres undefined)	0.4	-0.54
33	O=C(c1cccc(S(=O)(=O)Nc2ccccc2Cl)c1)N1CCN(C(=O)c2ccco2)CC1	0.64	0.43
34	C/C(=N\NC(=O)c1nnn(-c2nonc2N)c1CN(C)c1ccccc1)c1ccccn1	0.17	-1.3
35	COc1ccc(CNC(=O)CSc2nc3ccccc3n2C(C)=O)cc1	3.1	0.59
36	CC(O)CNc1nc2c(c(=O)n(Cc3ccc(Cl)cc3)c(=O)n2C)n1C (centres undefined)	1.5	-1.2
37	CCOC(=O)C1CCN(Cc2coc3c(Cl)cc(Cl)cc3c2=O)CC1	0.18	0.51
38	O=C(c1cc([N+](=O)[O-])ccc1N1CCOCC1)N1CCCCC1	1.9	-0.38
39	CCCS(=O)(=O)c1nc(S(=O)(=O)c2ccc(C)cc2)c(NCc2ccco2)s1	1.3	-1.4
40	CC1CN(CCOCCSc2ccc(Cl)cc2)CC(C)O1 (centres undefined)	0.69	0.49
41	Cc1ccc(/C=C2\SC(=S)N(CCCC(=O)N3CCOCC3)C2=O)cc1	0.26	1.2
42	CN1CCN(CC(=O)NC2CCCCC2)CC1	0.3	0.08
43	COC(=O)CCCC(=O)N1CCCC(N(C)CCc2ccccc2)C1 (centres undefined)	0.28	-3.9
44	Cc1nnc(SCC(=O)NNC(=O)c2ccco2)n1-c1cccc(Cl)c1	0.44	-1.1
45	CC(=O)[C@@]1(O)CC[C@H]2[C@@H]3CCC4=CC(=O)CC[C@]4(C)[C@H]3[C@@H](O)C[C@@]21C	0.42	-2.1
46	CN(Cc1ccncc1)C1CC(=O)N(c2ccc(F)cc2)C1=O (centres undefined)	0.5	-0.01
47	O=C(CCC(=O)N1CCN(C2CCCC2)CC1)Nc1nnc(C(F)(F)F)s1	0.01	0.01
48	c1coc(-c2nnc3sc(C4CCCCC4)nn23)c1	1.4	-2.9
49	CCC1CCCCN1C(=O)CCS(=O)(=O)c1ccc2c(c1)CCN2C(C)=O (centres undefined)	0.76	0.5
50	CCOC(=O)c1cnc2c(cnn2C)c1NCCC(O)C(F)(F)F (centres undefined)	0.04	0.79

# The closing three entries of the part above open the next one.
No.	SMILES	KCNQ2 enhance	KCNQ2 enhance baseline
48	c1coc(-c2nnc3sc(C4CCCCC4)nn23)c1	1.4	-2.9
49	CCC1CCCCN1C(=O)CCS(=O)(=O)c1ccc2c(c1)CCN2C(C)=O (centres undefined)	0.76	0.5
50	CCOC(=O)c1cnc2c(cnn2C)c1NCCC(O)C(F)(F)F (centres undefined)	0.04	0.79
51	CCOc1ccc(-c2nn3c(-c4ccc(F)cc4)nnc3s2)cc1	0.51	-0.58
52	CCc1c(O)nc(SCC(=O)Nc2nc3ccccc3s2)n(-c2ccc(C)cc2)c1=O	2.3	-1.2
53	CN1CCN(CCCc2c3c(cc4c2CCC4)CCC3)CC1	1	-0.95
54	Cc1cc2oc(C(=O)NC3CCS(=O)(=O)C3)c(C)c2cc1C (centres undefined)	1.6	0.45
55	CN(C)CCCNc1nc(N)c([N+](=O)[O-])c(NCCO)n1	0.21	0.02
56	O=C1CCCC2=C1C(c1cccc(O)c1)C1=C(N2)c2ccccc2C1=O (centres undefined)	1	-0.05
57	COc1ccc(C(=O)NC(=S)NNC(=O)c2ccc(C)cc2)cc1	0.98	-0.13
58	CSc1ccc(NC(=O)Nc2cc(C)ccn2)cc1	1.3	0.52
59	CCOc1ccc(N(CC(=O)NCc2ccc(F)cc2)C(=O)c2snc(C(N)=O)c2N)cc1	1.4	-0.69
60	CC(C)n1c(-c2ccccc2F)n[nH]c1=S	1.6	-1
61	CC(C(=O)NCc1ccccc1)N1CCN(c2ccc(F)cc2)CC1 (centres undefined)	0.12	0.02
62	Cc1cc(C)c(Cn2c3ccccc3c3cnn(CC(=O)NCCN4CCOCC4)c(=O)c32)c(C)c1	1.6	0.58
63	CC(C)C[C@H](NC(=O)OC(C)(C)C)C(=O)N[C@@H](CO)[C@H](O)[C@@H]1C[C@@H]1C(=O)NC1CCCCC1	1.3	-1
64	COC(=O)[C@H]1Cc2cnoc2C[C@]1(C)C(=O)O	0.95	-0.25
65	CN(Cc1cn(C)nc1-c1ccccc1F)Cc1nccn1C	0.11	-0.57
66	CCc1nc(SCC(=O)Nc2nccs2)c2oc3ccccc3c2n1	0.97	-1.3
67	C=CCn1c(-c2cc(-c3ccc(C)cc3)nc3ccccc23)n[nH]c1=S	0.36	-0.04
68	CCCCNC(=O)CSc1nnc(-c2ccco2)n1C	0.08	-0.64
69	Cc1cnnc2ccc3c(no[n+]3[O-])c12	0.1	1.5
70	Cc1nc2ccccc2c(=O)n1-c1ccc(F)c(NC(=O)c2cccs2)c1	0.85	-0.83
71	NC(=O)C1CCN(CC(=O)Nc2ccccc2Sc2ccccc2)CC1	1.4	-1.4
72	COc1ccc(N=NC2=C(O)CC(C)(C)CC2=O)cc1	0.1	1.8
73	Fc1cccc(-c2nn[nH]n2)c1	0.26	0.33
74	O=C(Cc1cc(=O)[nH]c(=O)[nH]1)NCc1ccc(Cl)cc1	0.85	-0.24
75	CCc1cc2cccc(C)c2nc1SCC(=O)N1CCN(C(=O)c2ccco2)CC1	0.43	-0.04
76	Cn1nnnc1SCC(=O)N1CCN(S(=O)(=O)c2ccccc2)CC1	0.21	0.28
77	COc1ccc(Nc2cc(Sc3ccc(OC)cc3)ncn2)cc1	0.56	0.12
78	Cc1ccccc1CS(=O)(=O)Cc1ccc(C(=O)NC2CCCCC2)o1	2.5	-1.6
79	CCCN1CCC(Oc2cccc(C(=O)NCCc3ccccc3)c2)CC1	2.3	-1.5
80	CCCCc1cc(=O)oc2c(C)c(OCC(=O)N3CCC(C(=O)O)(c4ccccc4)CC3)ccc12	0.8	-0.83
81	COc1cccc(C(C#N)N2N=C(C)CC2(C)C)c1O (centres undefined)	0.65	0.55
82	O=C1c2cccnc2C(=O)N1Cc1ccc(F)cc1	0.26	-1.3
83	COc1c(OC)c(O)c2c(=O)c(O)c(-c3ccccc3)oc2c1OC	1.2	-0.75
84	CCOC(=O)N1CCc2c(sc3nc4n(c(=O)c23)N=C(c2ccc(OC)cc2)CS4)C1	0.93	0.44
85	O=C1c2ccccc2C(=O)N1CCCCON1C(=O)c2ccccc2C1=O	1.2	-0.79
86	Cc1nc(NC(=S)NC(=O)c2cccs2)ccc1Br	9.4*	1.1*
87	COC(=O)c1ccc(-c2csc(NC(=O)c3ccc(S(=O)(=O)N4CCc5ccccc5C4)cc3)n2)cc1	1.2	-0.64
88	O=C(OCc1ccccc1)c1cnc(Cl)c(Cl)c1	0.85	0.44
89	COc1cccc(CN(C)C(=O)c2ccc(N3CCCC3)c([N+](=O)[O-])c2)c1	1.1	-1.6
90	O=C(N=C1SC2CS(=O)(=O)CC2N1c1cccc(F)c1)C1CC1 (centres undefined)	0.29	1.6
91	Cc1nnc2n1NC(c1ccc(Cl)cc1)C(C(=O)N1CCC(C)CC1)S2 (centres undefined)	0.37	1.8
92	COC(=O)/C=C1\N/C(=N\c2nc(C)cc(C)n2)N(c2ccc(Cl)cc2)C1=O	0.1	0.66
93	Cn1cc(S(=O)(=O)N2CCC(C(N)=O)CC2)c(=O)n(C)c1=O	0.28	0.7
94	O=C(NCc1nc2ccccc2[nH]1)c1cccs1	1.4	0.3
95	Cc1ccc(-c2noc(Cn3nc(C(=O)O)c4ccccc4c3=O)n2)cc1	0.83	1.3
96	COCC(O)CNc1ccccc1 (centres undefined)	1.1	-3.8
97	Clc1ccc(CN2C3=NCCN3c3ccccc32)cc1	1.9	0.23
98	CCOC(=O)c1[nH]c2cc(OC)c(OC)cc2c1N	1.1	-0.05
99	COc1ccc(Cl)cc1NC(=O)CN1C(=O)CC(C)S(=O)(=O)c2ccccc21 (centres undefined)	1.1	-0.18
100	O=C(N=Nc1c(O)[nH]c2ccccc12)c1ccc2c(c1)OCO2	1.2	2.5

# Full records, quoted from the list. Order of values: KCNQ2 enhance, KCNQ2 enhance baseline
# Cn1c(=O)c2c(SCc3ccccn3)nc(CC(C)(C)C)nc2n(C)c1=O as listed: 0.06, -0.24
# O=C(N=C1SC2CS(=O)(=O)CC2N1c1cccc(F)c1)C1CC1 (centres undefined) as listed: 0.29, 1.6
# C=CCn1c(-c2cc(-c3ccc(C)cc3)nc3ccccc23)n[nH]c1=S as listed: 0.36, -0.04
# O=C1c2cccnc2C(=O)N1Cc1ccc(F)cc1 as listed: 0.26, -1.3
# Cc1ccccc1CS(=O)(=O)Cc1ccc(C(=O)NC2CCCCC2)o1 as listed: 2.5, -1.6

# Carrying on:
No.	SMILES	KCNQ2 enhance	KCNQ2 enhance baseline
101	CCc1ccc(NC(=S)N2CCNC(=O)C2CC(=O)OC)cc1 (centres undefined)	0.24	0.98
102	Nc1nc(CN2CCN(c3ccccc3)CC2)nc(Nc2ccc(Cl)cc2)n1	3.2	0.56
103	O=C(NNC(=O)C1CCCO1)c1ccc(F)cc1 (centres undefined)	0.37	0.9
104	O=c1oc(-c2ccco2)nc2sc3c(c12)CCCCC3	0.03	-0.04
105	COC(=O)[C@H](CC(C)C)NC(=O)NCCCc1ccccc1	0.52	-0.79
106	CCC1CCCCN1CCCNC(=O)C1CCCN(c2ncnc3c2nc2n3CCCCC2)C1 (centres undefined)	2.1	0.41
107	CCCCCN(C(=O)NC(=O)Nc1ccc(C)cc1)S(=O)(=O)c1ccccc1	0.11	0.36
108	COCCCn1c(=O)c2sccc2n(Cc2ccc(C)cc2)c1=O	0.81	-1.1
109	COc1cc(OC)cc(C(=O)NC(=S)N2CCCCCC2)c1	1.1	0.39
110	COC(=O)c1c(-c2ccccc2)csc1N1C(=O)Nc2ccccc2N1O	0.39	-0.18
111	O=C(NC1CCCCCC1)C1CCC(CNS(=O)(=O)c2ccc(Br)s2)CC1 (centres undefined)	0.51	0.73
112	COc1cc(C=O)ccc1OCc1ccc(Cl)nc1	1.8	-1.4
113	O=C(CN(CC1CCCO1)C(=O)CCC(=O)Nc1ccccn1)NCC1CCCO1 (centres undefined)	0.01	3.4
114	C=C1C(=O)O[C@H]2C[C@]3(C)C([C@@H](OC(=O)/C(C)=C/C)[C@H]12)[C@](C)(O)CC[C@H]3O (some centres undefined)	0.38	0.17
115	COc1ccc(N2CC(C(=O)N[C@@H](C)C(=O)NCc3ccccc3OC)CC2=O)cc1 (some centres undefined)	0.6	-0.15
116	CN1CCN(NC(=O)Nc2cccc(Cl)c2Cl)CC1	0.59	2.8
